# RecA splice inh: blocks M. tuberculosis RecA intein splicing | P9WHJ3 | actives 0.75% (n = 290,000) | inhibition, %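 (about 9 µM by stock and volumes)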 | cell-free RecA intein splicing, fluorescence; in the data active = inhibition above about 30%; inconclusive = no clear call, values can overlap the other calls;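 also: 0% = vehicle wells and 100% = reference inhibitor control wells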
# Target sequence (P9WHJ3 whole entry, looked up, canonical isoform): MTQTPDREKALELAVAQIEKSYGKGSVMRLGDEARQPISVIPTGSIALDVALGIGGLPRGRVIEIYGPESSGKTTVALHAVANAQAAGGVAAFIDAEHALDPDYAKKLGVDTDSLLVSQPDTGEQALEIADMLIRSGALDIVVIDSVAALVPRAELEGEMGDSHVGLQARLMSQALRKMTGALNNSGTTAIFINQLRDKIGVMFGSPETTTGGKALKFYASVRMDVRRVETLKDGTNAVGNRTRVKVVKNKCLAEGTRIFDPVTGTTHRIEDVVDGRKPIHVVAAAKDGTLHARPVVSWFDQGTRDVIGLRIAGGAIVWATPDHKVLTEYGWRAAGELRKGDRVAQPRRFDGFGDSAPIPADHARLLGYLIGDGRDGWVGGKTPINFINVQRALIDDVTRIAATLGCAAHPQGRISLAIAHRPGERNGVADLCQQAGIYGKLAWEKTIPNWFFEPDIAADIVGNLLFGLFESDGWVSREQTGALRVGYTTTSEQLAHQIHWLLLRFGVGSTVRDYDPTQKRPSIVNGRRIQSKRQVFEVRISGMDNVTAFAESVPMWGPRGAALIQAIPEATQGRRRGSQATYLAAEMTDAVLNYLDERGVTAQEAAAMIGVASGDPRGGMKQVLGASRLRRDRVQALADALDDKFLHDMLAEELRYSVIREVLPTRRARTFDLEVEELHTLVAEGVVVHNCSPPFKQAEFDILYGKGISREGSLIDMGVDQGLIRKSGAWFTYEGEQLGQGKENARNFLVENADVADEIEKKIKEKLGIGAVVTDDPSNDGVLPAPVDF
# Mtb H37Rv: M. tuberculosis H37Rv growth inhibitors, H37Rv strain (AID 1626) | actives 0.95% (n = 220,000) | M. tuberculosis H37Rv growth inhibition; higher % means a stronger effect | one-dose inhibition, % at 10 µM; IC50 in µM for titrated hits;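 active = confirmed in a dose series; inconclusive = inhibition above 80% but not taken into the dose series; inactive = below 80% or under 30% at every dose of the series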;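 also: bacteria incubated seven days before Alamar blue readout; 0% = bacteria only wells and 100% = bacteria with antibiotic wells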
# YopH inh: YopH (Yersinia) phosphatase inhibition; inhibition, %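 (about 10 µM by stock and volumes)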; fluorescence Ex485/Em525; actives 0.16% (n = 140,000);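 active = inhibition of 50% or more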;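 also: controls were vehicle for no effect and minimum signal wells for full effect; inactives centre near -20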
# Mtb betalactam: beta-lactam sensitization of Mtb H37Rv | M. tuberculosis H37Rv growth with meropenem, percent inhibition; hits of this screen are not shown here | inhibition, % at 25 µM | actives 0.27% (n = 330,000) | AID 434955;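 active = about 74% or more and at least 40 points above the plate without the antibiotic, then above 30% in a dose series; inconclusive = first-round hits that could not be retested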;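 also: growth measured after seven days incubation then overnight dye step; 0% = bacteria only wells and 100% = bacteria with antibiotic; twin plates without the antibiotic show which effects depend on it; some results filed as inactive read as strong as hits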
# Arbovirus inh: antivirals against arbovirus infection | inhibition, % at 10 µM | AID 1251 | arbovirus infection cell-based antiviral screen | actives 0.37% (n = 200,000);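 active = inhibition from about 30%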;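 also: bluetongue infection of BSR cells; cell survival read as ATP light after 72 h; 0% = infected wells without compound and 100% = uninfected wells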
# Arbovirus inh repeat: second read-out of Arbovirus inh, no call of its own (marks repeat the call); inhibition, %; measured here: 10K subset replicate screen; many hits read low in the repeat;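 first of two repeat runs on a subset; 0% = infected and 100% = uninfected wells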
# * hit, by the source's call; u = inconclusive; x = not tested or not shown. Not all compounds are listed; count on the stated rates, not on these rows.
SMILES,RecA splice inh,Mtb H37Rv,YopH inh,Mtb betalactam,Arbovirus inh,others
Cc1cc(NC(=O)C2CC=CCC2C(=O)O)ccc1NC(=O)c1ccccc1 (stereo not given),0.3,x,x,-2.7,x,
CCC(=O)Nc1ccc(C(=O)CSc2nnc(-c3ccc(NS(=O)(=O)CC)cc3)o2)cc1OC,4.5,-5.9%,x,-1.4,x,
COc1ccc2cc(S(=O)(=O)Nc3ccccn3)ccc2c1,8.2,x,x,2.5,x,
Cc1ccc(CN2CCc3c(OCc4ccc(F)cc4)cccc3C2=O)cc1,8.8,x,-26.2,60.8,7.4,
COC(=O)C1=C(C)N(c2ccc(F)cc2)/C(=C/c2ccc(O)cc2)C1=O,-1.0,-0.1%,x,2.2,4.7,
COC(=O)C1C(c2ccc(OC)cc2)Nc2nnc(C(F)(F)F)n2C1(C)O (stereo not given),3.2,x,x,2.3,-3.5,
CCCC(=O)OC1CCS(=O)(=O)c2sccc21 (stereo not given),-0.9,0.3%,x,-3.3,8.5,
O=c1oc2ccccc2c(Nc2ccc(O)cc2)c1[N+](=O)[O-],-6.8,3.3%,-20.9,8.5,-20.0,
Oc1ccc(O)c(Cc2nc3ccccc3[nH]2)c1,14.2,4.2%,x,4.6,0.9,
CCN(CC(=O)N1CCCC1)S(=O)(=O)c1ccc(Br)cc1,0.7,x,x,-1.6,x,
CCOc1cc(/C=N/NC(=O)c2cccnc2)ccc1OC(=O)c1ccco1,21.0,2.4%,x,2.3,7.7,
N#Cc1ccc(NC(=O)COC(=O)CCc2ccc(S(=O)(=O)N3CCCCC3)cc2)cc1,-0.9,-7.8%,-27.6,-1.5,-2.7,
CCOC(=O)c1[nH]c(=O)[nH]c1CSc1nc(C)cc(C)n1,-2.7,6.9%,2.3,-4.6,9.2,Arbovirus inh repeat=2.9
CCOc1cc(/C=N/NC(N)=O)ccc1OC(=O)c1ccc(C)cc1,0.6,x,8.2,0.8,7.5,
Cc1ccc(S(=O)(=O)N/N=C\c2ccc(Cl)c([N+](=O)[O-])c2)cc1,-2.5,-5.4%,-2.9,6.1,0.0,
COc1ccc(NC2CCCN(C(=O)CCC(=O)c3ccc(F)cc3)C2)cc1 (stereo not given),-4.0,x,x,2.4,x,
Cc1c(NS(=O)(=O)c2ccc(S(=O)(=O)c3ccccc3)s2)c(=O)n(-c2ccccc2)n1C,4.0,-7.5%,x,0.5,x,
O=C(COc1ccc(Cl)cc1)N(Cc1ccc(F)cc1)C1CCS(=O)(=O)C1 (stereo not given),-1.3,x,x,14.0,x,
O=C(Nc1ccc(S(=O)(=O)N2CCOCC2)cc1)c1cccc([N+](=O)[O-])c1,-2.0,x,x,-2.2,x,
O=C(NC(Cc1ccccc1)C(=O)NCCc1ccccn1)c1ccccc1 (stereo not given),3.0,x,x,-1.5,x,

# Among those listed so far, these have an aryl methoxy group:
SMILES,RecA splice inh,Mtb H37Rv,YopH inh,Mtb betalactam,Arbovirus inh,others
CCC(=O)Nc1ccc(C(=O)CSc2nnc(-c3ccc(NS(=O)(=O)CC)cc3)o2)cc1OC,4.5,-5.9%,x,-1.4,x,
COc1ccc2cc(S(=O)(=O)Nc3ccccn3)ccc2c1,8.2,x,x,2.5,x,
COC(=O)C1C(c2ccc(OC)cc2)Nc2nnc(C(F)(F)F)n2C1(C)O (stereo not given),3.2,x,x,2.3,-3.5,
COc1ccc(NC2CCCN(C(=O)CCC(=O)c3ccc(F)cc3)C2)cc1 (stereo not given),-4.0,x,x,2.4,x,

# Next part
SMILES,RecA splice inh,Mtb H37Rv,YopH inh,Mtb betalactam,Arbovirus inh,others
CSc1ccc(S(=O)(=O)NCC(=O)OCC(=O)N(C)CC(=O)Nc2ccccc2Cl)cc1[N+](=O)[O-],-0.4,x,x,-13.3,x,
O=C(/C=C/c1cn(-c2ccccc2)nc1-c1cccnc1)c1ccco1,2.5,u,x,96.6,-30.2,
CCOc1ccc(C(=O)NC(=S)Nc2ccc(NC(=O)C(C)C)cc2)cc1[N+](=O)[O-],4.0,0.2%,-23.6,5.1,-0.4,
OC(COc1ccc(Br)cc1)CN1CCC(Cc2ccccc2)CC1 (stereo not given),2.3,x,x,7.2,x,
O=C(O)c1cc(-c2ccccc2)n(-c2ccccc2C(=O)O)n1,-11.6,-5.5%,-67.4,-5.7,6.8,
Cc1ccc(-c2csc(NC(=O)C[n+]3cc(-c4ccc(C)cc4)n4c3CCC4)n2)cc1,6.7,11.3µM*,x,98.3,x,
COc1ccc(OC)c(NS(=O)(=O)c2ccc(SC)cc2)c1,-0.9,-8.8%,-28.5,-20.0,-0.9,
CC(C)(C)n1nnnc1CN1C2CCC1CC(NC(=O)Nc1ccccc1)C2 (stereo not given),-4.1,-4.5%,-29.1,-1.2,-3.8,
CCOc1ccc(S(=O)(=O)NCCC(=O)NCc2ccccn2)cc1,-0.1,x,x,2.7,x,
CCOC(=O)c1c(NC(=O)C2CCCO2)sc(C)c1C (stereo not given),3.3,5.0%,x,0.7,4.4,
C/C(=N\Nc1nc2ccccc2[nH]1)c1ccc2c(c1)OCO2,5.1,77.0%,x,-3.8,36.4*,
S=C(Nc1cccnc1)N1CCCCC1,2.8,2.1%,x,-2.4,-3.3,
CCCc1cc(Nc2ccc(C)cc2)n2ncnc2n1,3.3,x,x,-5.1,x,
COc1ccc(-c2nc3ncccc3o2)cc1NC(=O)c1ccco1,1.5,x,x,47.5,x,
O=C1CC(c2ccco2)CC(O)=C1C=Nc1cc(Cl)ccc1Cl (stereo not given),-2.6,2.0%,-31.5,4.0,3.0,
CN(C)/C=C/C(=C\C(=O)C(F)(F)F)Nc1ccc(C(F)(F)F)cc1,-5.6,10.5%,x,-4.9,-5.6,
Cc1ccc(C(=O)Nc2ncnc3sc4c(c23)CCCCC4)cc1,0.5,u,-1.0,98.3,-7.2,
COc1ccc(NS(=O)(=O)c2cc3c4c(c2)C(C)C(=O)N4CCC3)cc1 (stereo not given),1.7,x,x,4.6,x,
COc1ccc2[nH]cc(CCNC(=O)c3ccc([N+](=O)[O-])cc3)c2c1,-0.2,1.6%,x,-6.7,-7.3,
CC(C)Cn1nc(-c2ccccc2)c2ccccc2c1=O,8.1,x,x,6.7,x,
COc1ccc(NC(=O)CN(C)C(=O)c2cc(S(=O)(=O)N3CCCCCC3)ccc2OC)cc1,0.3,x,x,-11.1,x,
CC(C)Oc1ccc(C(CC(=O)NCc2ccco2)c2ccccc2)cc1 (stereo not given),2.1,2.5%,-17.0,-13.6,-1.4,
COCCCNC(=O)c1oc2ccc(S(=O)(=O)N(C)C3CCCCC3)cc2c1C,2.2,4.1%,-20.3,-1.2,-6.9,Arbovirus inh repeat=-3.9
COC(=O)C1CC(O)CN1C(=O)NC1CCCCC1 (stereo not given),-2.4,4.1%,x,-6.0,-0.1,
COc1ccc(CCNC(=O)COC(=O)/C=C/c2cccs2)cc1,2.1,-0.8%,x,-7.0,1.7,
O=C(c1ccco1)N1CCN(S(=O)(=O)c2ccc(Br)cc2)CC1,0.2,x,x,-1.6,x,
COc1ccc(CNC(=O)C2(CC3CC(c4ccccc4)=NO3)CCN(C(=O)C3(C)CC3)CC2)cc1 (stereo not given),-0.5,2.0%,x,-5.1,x,
CC(NC(=O)CNC(=O)[C@@H]1Cc2ccccc2CN1)c1ccccc1 (stereo not given in full),-3.0,x,x,-2.3,x,
Cc1cccc(C(=O)Nc2ccc(CC(=O)O)cc2)c1,0.0,-2.5%,19.0,30.6,3.4,
COc1ccc(CN=C2NN=C(c3ccccc3)CS2)cc1,5.8,5.7%,x,1.8,16.1,
O=C(NC(C(=O)N/N=C/c1c2ccccc2cc2ccccc12)c1n[nH]c(=O)c2ccccc12)c1ccccc1 (stereo not given),-23.2,x,-27.7,98.4,-10.3,
COc1ccc(NC(=O)c2csc(C)c2)cc1OC,-1.8,x,x,-18.7,x,
CC(C)OCCCN(C)C1CCN(S(=O)(=O)c2ccc(-c3cc(C(F)(F)F)no3)s2)CC1,-0.9,x,x,19.0,x,
CN1CC(=O)N(C)c2nc(Br)n(C)c2C1=O,-0.6,1.0%,-45.7,1.9,4.2,
CCn1cc(Br)c(C(=O)Nc2cccc(SC)c2)n1,2.7,0.1%,-2.8,9.3,-1.1,
CCc1ccccc1NC(=O)NNC(=O)CCc1ccccc1,0.6,x,x,5.3,x,
O=C(COc1cccnc1[N+](=O)[O-])Nc1cccc(S(=O)(=O)N2CCCCC2)c1,1.6,-3.5%,-28.7,7.2,-7.0,
COc1ccc(-c2nc(N3CCCC3)[nH]c(=O)c2C#N)cc1,-0.7,-14.9%,6.7,-0.7,2.9,Arbovirus inh repeat=1.5
Cn1nc(C(F)(F)F)c(-c2ccccc2)c1NC(=O)CSCC(=O)O,0.4,1.9%,x,-2.0,x,
CC(=O)NN1C(=O)c2ccccc2NC1c1ccc(N(C)C)cc1 (stereo not given),-7.9,x,x,3.9,x,
Cc1ccc2nc(-c3ccc(NC(=O)CNC4CC4)cc3)sc2c1,0.2,-2.8%,x,x,-40.5,
c1ccc(-c2ccccc2OCCCCn2ccnc2)cc1,4.3,x,x,89.8,x,
COc1ccc(Oc2coc3cc(OC(=O)c4cccs4)ccc3c2=O)cc1,0.3,-3.6%,-31.9,4.0,8.7,
C=CCn1c(O)c(N=NC(=O)CNC(=O)Cc2ccccc2)c2ccccc21,-2.1,x,x,-6.3,x,
O=C(CCc1ccccc1)Nc1ccc(F)c([N+](=O)[O-])c1,3.1,-2.7%,x,0.4,5.8,
COc1cc(-c2nc(-c3cccnc3)no2)cc(OC)c1OC,1.6,1.0%,-17.9,3.2,15.0,
CCOC(=O)c1c(NC(=O)COC(=O)c2ccc([N+](=O)[O-])cc2)sc(C(=O)N(C)C)c1C,1.3,x,x,11.2,x,
COC(=O)C1CCN(c2ccc([N+](=O)[O-])cc2[N+](=O)[O-])CC1,x,-6.3%,x,0.7,-20.5,
Cc1ccc(NC(=O)CSC2=NCCN2)cc1,-189.1,0.0%,-24.3,-9.9,-5.0,
Cc1onc(-c2ccccc2Cl)c1C(=O)N1CCC(C)CC1,1.3,x,x,0.8,x,

# Next records follow.
SMILES,RecA splice inh,Mtb H37Rv,YopH inh,Mtb betalactam,Arbovirus inh,others
NC(=O)c1cc2cc([N+](=O)[O-])ccc2oc1=O,0.7,-2.8%,x,-4.5,1.2,
O=C(NCCO)C(=O)NCC1OCCCN1S(=O)(=O)c1cccs1 (stereo not given),1.3,-2.9%,-14.4,-2.2,4.7,
COc1ccc(CCNC(=O)CCC(=O)N2CCOc3ccc(C)cc32)cc1OC,-0.8,x,x,-9.7,x,
CCOC(=O)Cc1csc(NS(C)(=O)=O)n1,0.7,-14.3%,-10.9,-0.6,-0.6,
CN(C)c1cccc(C(=O)N/N=C/c2ccoc2)c1,0.8,x,x,-2.5,x,
COc1ccc2nc3oc(C(=O)N4CCN(c5cccc(Cl)c5)CC4)cc3cc2c1,-4.4,5.9%,-59.8,0.4,-6.7,
COc1ccc(S(=O)(=O)N2CCC(C(=O)N3CCN(C)CC3)CC2)cc1OC,2.7,x,x,-6.1,x,
Cc1ccc(S(=O)(=O)N(CCO)Cc2cc3ccc(C)c(C)c3[nH]c2=O)cc1,0.4,-1.2%,-27.1,39.4,-11.4,
O=C(O)C(O)C(O)c1nc2ccccc2[nH]1 (stereo not given),0.3,7.0%,x,1.9,-1.0,
CC(C)c1ccc(NC(=O)NC2CCN(CC(=O)Nc3cccc4ccccc34)CC2)cc1,-5.3,x,-13.1,16.2,-20.5,
CCN(Cc1cc2cc(C)ccc2[nH]c1=O)C(=O)c1cccc([N+](=O)[O-])c1,1.1,3.8%,x,0.0,x,
Nc1nonc1-c1noc(CCCN2C(=O)c3ccccc3C2=O)n1,1.4,7.4%,-36.6,-8.4,1.0,
CCC(C)C(NC(=O)OCc1ccccc1)C(=O)NC(Cc1ccc(O)cc1)C(=O)OC (stereo not given),-0.1,-1.3%,x,-2.2,2.6,
CCS(=O)(=O)c1nc(S(=O)(=O)c2ccc(Cl)cc2)c(N2CCC(O)CC2)s1,-7.8,x,x,4.2,x,
COc1cc2c(cc1OC)C(C(=O)O)C(c1cc(Br)c(O)c(OC)c1)N(C)C2=O (stereo not given),1.3,-14.6%,-14.9,-8.4,4.3,
COc1ccc(-c2nc(CSCC(=O)N3CCN(c4cccc(C)c4)C(C)C3)c(C)o2)cc1OC (stereo not given),6.2,x,-21.8,48.1,6.2,Arbovirus inh repeat=-16.5
CCCCn1c(N)c(N(CCOC)C(=O)COC(=O)COc2ccccc2C#N)c(=O)[nH]c1=O,-1.5,x,x,-0.1,x,
CCOc1ccc(CN2CCN(c3cc(C)nc4c5c(C)cc(C)nc5nn34)CC2)cc1,-10.0,3.6%,-36.2,x,8.7,
COCCNCC1C(Oc2ccc(Cl)cc2)C(=O)N1c1ccccc1C (stereo not given),2.3,0.7%,x,-4.0,4.7,
CCCCCCCCCCCC(=O)N/N=C/c1ccco1,-1.0,-5.8%,-8.0,49.0,-6.9,

# Bioassay records (PubChem BioAssay)
